Screening data as filed in PubChem BioAssay.
RGS16-Gao HTS = modulators of RGS16 binding to Galphao, primary screen, biochemical, human proteins, multiplexed bead flow cytometry; Regulator of G-protein signaling 16 (Homo sapiens) + Guanine nucleotide-binding protein …; bead-based flow cytometry RGS16-Galphao binding, fluorescence; actives lie on both sides; binding response (% of control), % at 10 µM; hit rate 0.38% among 220,000;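 active = below 25% or above 175%, edge rows of some plates excepted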;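 note: Galphao activated by GDP with aluminum fluoride before binding; 100% = wells without compound and 0% = beads without RGS; some results beyond the cut were filed as inactive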
Target sequence (O15492 whole entry, looked up): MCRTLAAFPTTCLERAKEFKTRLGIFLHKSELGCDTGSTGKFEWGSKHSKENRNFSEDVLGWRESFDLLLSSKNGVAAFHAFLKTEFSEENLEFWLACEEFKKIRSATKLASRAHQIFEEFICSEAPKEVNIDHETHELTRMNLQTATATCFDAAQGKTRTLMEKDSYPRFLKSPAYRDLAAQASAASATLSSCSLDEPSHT
Target sequence (P09471 whole entry, looked up): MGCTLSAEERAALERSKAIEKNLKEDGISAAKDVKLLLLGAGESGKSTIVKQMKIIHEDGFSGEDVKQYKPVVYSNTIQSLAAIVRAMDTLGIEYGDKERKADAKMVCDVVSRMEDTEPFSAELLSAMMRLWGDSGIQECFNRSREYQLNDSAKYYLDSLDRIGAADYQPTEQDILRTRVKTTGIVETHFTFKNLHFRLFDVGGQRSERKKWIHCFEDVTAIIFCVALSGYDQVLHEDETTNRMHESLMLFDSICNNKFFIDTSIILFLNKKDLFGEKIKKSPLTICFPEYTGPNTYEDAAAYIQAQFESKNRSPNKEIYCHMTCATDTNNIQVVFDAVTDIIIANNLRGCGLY
Insulin prom inh = inhibitors of insulin promoter-driven GFP, primary screen, imaging, TRM-6 cells (human fetal islet line), eGFP reporter, cell count | AID 1273, 2008 | inhibition, % at 2 µM | hit rate 0.9% among 130,000 | reporter expression induced with tamoxifen;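 active = inhibition above the mean plus 3 SD, with well images judged a real hit on visual review, cut at about 60% in these data, passing the limit was not always enough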
PKD1 kinase inh = inhibitors of human PKD1 kinase, biochemical, fluorescence polarization | PKD1 kinase fluorescence polarization assay | AID 797, 2007 | hit rate 0.056% among 200,000 | Serine/threonine-protein kinase D1 (Homo sapiens), Q15139 | inhibition, %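 (about 10 µM by stock and volumes)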;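 active = inhibition of 50% or more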;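 note: controls were vehicle for no effect and a reference inhibitor for full effect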
HSV augment = enhancers of HSV replication in host cells, fold increase, host cell viability. HSV replication augmentation in cells. maximum fold increase. AID 1956, 2009. hit rate 0.005% among 220,000;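 active = peak rise of 1.5-fold or more in the series; tested in PC3 cells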;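 note: first round at 10 µM; read as green reporter fluorescence; hits show the peak of a series up to 25 µM; 1 = signal of infected wells without compound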
GALR2 agonist = GALR2 receptor agonists, primary screen, cell-based | Galanin receptor type 2 (Homo sapiens), O43603 | activation, %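 (tested at 5 µM)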 | GALR2-expressing cells, agonist activation read-out | hit rate 0.48% among 140,000;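 active = above mean plus 3 SD of all compounds, about 5% in these data, not always enough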;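 note: 0% = vehicle buffer wells and 100% = reference agonist at full effect; tested in CHO reporter cells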
Target sequence (O43603 whole entry, looked up): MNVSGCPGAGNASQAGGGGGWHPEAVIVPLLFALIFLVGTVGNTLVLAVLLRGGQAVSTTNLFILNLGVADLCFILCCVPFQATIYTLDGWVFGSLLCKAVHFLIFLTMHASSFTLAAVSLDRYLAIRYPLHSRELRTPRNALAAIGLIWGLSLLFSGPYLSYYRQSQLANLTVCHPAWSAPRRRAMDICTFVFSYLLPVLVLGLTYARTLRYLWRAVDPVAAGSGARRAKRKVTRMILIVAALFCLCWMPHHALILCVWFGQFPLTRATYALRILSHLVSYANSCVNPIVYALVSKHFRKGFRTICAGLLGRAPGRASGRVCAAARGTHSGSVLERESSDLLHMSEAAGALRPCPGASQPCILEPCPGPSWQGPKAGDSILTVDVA
Insulin prom inh cell count = also measured in Insulin prom inh; calls as there; normalized cell count, %; measured here: cell count, toxicity; reference of the scale not given here;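 cells exposed to compound for 48 h; stained nuclei by imaging scaled within each plate; lower means fewer cells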
HSV augment primary fold = second read-out of HSV augment, no call of its own (marks repeat the call); fold increase; compound at 10 µM; measured here: primary screen fold increase 10 uM; tested in PC3 cells;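 GFP signal in the first replicate; 1 = infected wells without compound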
Active calls of the source: *; i = inactive; nt = not tested or not shown. Random draw from the library; overall some 1.2% were active at least once.

compound	HSV augment primary fold	Insulin prom inh	HSV augment	GALR2 agonist	RGS16-Gao HTS	Insulin prom inh cell count	PKD1 kinase inh
Cc1[nH]n(-c2ccccc2)c(=O)c1C=Nc1ccc(S(=O)(=O)N=C(N)N)cc1	0.98	nt	i	nt	101.1	nt	nt
NC(=O)CSc1nnc(-c2ccc(S(=O)(=O)N3CCCC3)cc2)n1CC1CCCO1 (stereo not drawn)	1.15	41.7	i	-1.9	99.4	88.6	-2.8
CN(C)CCCN(C(=O)c1cc2ccccc2oc1=O)c1nc2ccc(F)cc2s1	1.04	nt	i	0.2	102.5	nt	-5.8
COc1ccc(S(=O)(=O)NCc2ccccn2)cc1	1.15	-14.3	i	-1.0	86.8	51.4	-1.6
CCC(=O)Nc1cccc(C(=O)OCc2cccc([N+](=O)[O-])c2)c1	0.99	-5.9	i	nt	103.0	107.1	-0.5
O=C(CSc1cccc2cccnc12)N/N=C/c1cccnc1	0.68	nt	i	nt	101.3	nt	-2.0
O=[N+]([O-])c1ccc(/C=N/n2cnc3ccccc32)s1	0.54	-27.8	i	-1.3	110.3	80.0	-5.8
CCN(CC)C(=O)Cn1nc(-c2ccccc2O)nc1SCC(=O)Nc1ccc(OC)cc1	0.89	nt	i	1.6	101.3	nt	-3.1
Cc1cc2cc3c(cc2nc1SCC(=O)Nc1c(C)cccc1C)CCC3	0.86	9.8	i	-3.0	89.6	130.5	-7.1
CCc1ccc(-n2c(O)cnc2Nc2nc(C)cc(C)n2)cc1	0.91	nt	i	nt	104.9	nt	-16.4
COc1cc(CNCCc2ccc(S(N)(=O)=O)cc2)ccc1OCC(=O)NC1CCCCC1	0.83	25.0	i	-1.6	97.7	80.1	-7.9
O=C(Cc1sc(Nc2ccccc2)nc1-c1ccccc1)NCc1ccccc1	0.81	nt	i	-0.2	106.2	nt	-5.0
Cc1ccc(N2C(=O)c3ccc(C(=O)N4CCN(c5ccc(C)c(C)c5)CC4)cc3C2=O)cc1	1.04	60.0	i	nt	108.2	89.6	-11.4
CCOC(=O)N1CCN(C(=O)Cc2ccsc2)CC1	0.94	35.7	i	-3.4	106.2	80.4	6.7
CS(=O)(=O)N(CC(=O)Nc1ccccc1)Cc1ccc(Cl)cc1	1.15	20.0	i	-2.9	103.7	96.0	-11.0
COc1cc(NC(=O)c2ccccc2)c(OC)cc1NC(=O)CN1CCOCC1	0.997	-24.2	i	-1.1	117.2	118.3	-10.7
COCCCn1c(SCC(=O)N2CC(=O)Nc3ccccc32)nnc1-c1ccoc1C	1.02	3.0	i	-1.1	99.3	104.1	-7.8
O=C(CNC(=S)N(Cc1ccccc1Cl)C1CCCC1)NCCN1CCOCC1	0.95	-77.8	i	nt	103.2	85.6	1.7
O=C(COc1ccc(S(=O)(=O)N2CCCC2)cc1Cl)NC1CC1	0.74	nt	i	-1.1	98.4	nt	-0.9
C[C@H](NC(=O)c1nc[nH]c1C(=O)N1CCc2ccccc2C1)C(=O)OC(C)(C)C	0.58	nt	i	nt	98.3	nt	nt
O=c1c2c3c(sc2nc2n1CCCC2)CCCCC3	0.8	-45.2	i	-2.7	77.8	141.7	0.3
Cc1cc(=O)n2nc(N3CCC(C(=O)NC4CCCc5ccccc54)CC3)sc2n1 (stereo not drawn)	1.06	15.4	i	-1.8	102.8	88.5	-3.7
CCC(C)NC(=O)C1CC(c2ccc(OC)cc2)=NO1 (stereo not drawn)	0.87	-81.8	i	-3.2	102.0	115.5	14.7
Cc1ccc2sc(C)[n+](CCC(C)S(=O)(=O)[O-])c2c1 (stereo not drawn)	0.99	3.5	i	0.1	98.3	121.6	-10.4
CCOc1ccc(C(C)C)cc1S(=O)(=O)n1nc(C)cc1C	1.01	-231.2	i	-1.3	107.4	68.0	-1.5
CCn1nc(C(=O)Nc2ccc(C)c(C)c2)c(Cl)c1Cl	1	nt	i	-2.9	100.7	nt	-4.6
CC1CC2c3cccc(C(=O)O)c3C(=O)N2c2ccc(Cl)cc21 (stereo not drawn)	0.96	nt	i	nt	93.1	nt	-3.7
Cc1nnc(NC(=O)CSc2nc(N)c(NC(=O)c3cccs3)c(=O)[nH]2)s1	1.01	nt	i	nt	103.6	nt	nt
CC(=O)c1cccc(NC(=O)CN(C)S(=O)(=O)c2ccccc2)c1	0.82	5.9	i	nt	107.4	121.8	4.2
Cc1cccc(N2C(=O)C(O)=C(C(=O)c3cccs3)C2c2ccc(F)cc2)n1 (stereo not drawn)	0.9	nt	i	nt	103.5	nt	0.7
COCCN(CCOC)CC(O)COC(c1ccccc1)c1ccccc1 (stereo not drawn)	0.95	11.1	i	nt	101.7	143.7	-6.0
CCN(CC)C(=O)C1CCCN(c2ccc([N+](=O)[O-])cc2/C=N/NC(=O)c2cccc([N+](=O)[O-])c2)C1 (stereo not drawn)	nt	18.0	nt	-2.1	92.6	78.0	-12.1
CC1(C)CN(c2ccsc2C(=O)O)C1=O	0.91	nt	i	nt	108.5	nt	0.0
CN(Cc1ccccc1)CC(O)COc1ccc(CNCCOc2cccnc2)cc1 (stereo not drawn)	0.76	nt	i	nt	98.9	nt	1.2
COc1cccc(C(=O)/C=C/c2ccc(SC)cc2)c1	0.85	nt	i	-3.8	94.9	nt	-7.4
Cc1cc(-n2cnc(-c3cn[nH]c3C)n2)no1	1.35	nt	i	nt	93.7	nt	nt
Cc1nc(CC(=O)c2ccc(O)c(C)c2O)cs1	0.98	nt	i	nt	100.5	nt	nt
Cc1ccc(-n2nc(C(=O)O)c3ccccc3c2=O)cc1C	0.89	0.0	i	0.9	95.0	92.7	0.0
CC(C)c1ccc(C(O)Cc2nc3ccccc3n2C)cc1 (stereo not drawn)	0.89	nt	i	nt	102.3	nt	nt
CCc1ccc(N(C(=O)c2ccco2)C(C(=O)NC2CCCC2)c2ccco2)cc1 (stereo not drawn)	0.977	-2.9	i	-1.5	101.4	105.2	-0.9
C/C(=N\NC(=O)c1ccccc1)c1ccc(C)c([N+](=O)[O-])c1	0.8	nt	i	-1.1	102.5	nt	-0.4
Cc1ccc(NCc2ccccc2OCc2ccccc2F)cc1	0.99	17.9	i	-0.9	104.1	106.3	-6.2
O=c1[nH]c(=O)n(C(c2ccccc2)c2ccccc2)cc1Br	0.92	-71.4	i	nt	102.0	127.1	-1.8
Cc1ccc(S(=O)(=O)N(c2cccc(C(F)(F)F)c2)C2C=CS(=O)(=O)C2)cc1 (stereo not drawn)	0.91	-17.4	i	-1.2	59.9	72.3	-13.1
CC1CCCN(c2nc3nonc3nc2N2CCCC(C)C2)C1 (stereo not drawn)	0.92	-26.3	i	-0.7	99.2	163.0	-2.2
COC(C[C@H]1O[C@@H]1[C@H](O)COCc1ccccc1)OC	1	nt	i	nt	96.5	nt	nt
COC(=O)CC1Oc2ccccc2N(Cc2ccc(C)cc2)C1=O (stereo not drawn)	1.09	nt	i	-0.7	102.4	nt	7.6
CCc1ccc(C(C)NC(=O)/C(C#N)=C\c2cn[nH]c2-c2ccccc2)cc1 (stereo not drawn)	0.9	3.3	i	-0.3	84.2	107.0	-0.7
O=C(Cn1cnc2ccccc2c1=O)Nc1nc2ccccc2s1	0.92	-25.0	i	nt	103.6	134.3	-1.0
CCC(C)NS(=O)(=O)c1ccc(OCC(=O)NCc2ccco2)cc1 (stereo not drawn)	0.86	33.3	i	-2.1	105.3	68.0	-7.0
O=c1[nH]c2ccccc2c2nc(-c3cccc(S(=O)(=O)N4CCCC4)c3)nn12	0.78	nt	i	nt	93.7	nt	nt
Cc1nc(N2CCN(C(=O)c3ccco3)CC2)c2c3c(sc2n1)CCCC3	0.84	-131.2	i	0.3	27.2	133.9	-5.8
C/C(=N\OC(=O)c1ccc(F)cc1)c1ccc(F)c(F)c1	0.9	nt	i	nt	94.4	nt	nt
CCOc1ccc(C(CC(=O)O)n2cnnn2)cc1OC (stereo not drawn)	0.89	30.0	i	nt	112.5	139.6	3.4
COCCOC(=O)c1c(C)n(C)c2ccc(OC(=O)c3ccco3)cc12	0.95	0.0	i	85.8*	106.9	90.8	-1.7
COc1ccc(NC(=S)NNC(=S)Nc2cccc(C(F)(F)F)c2)cc1	0.96	nt	i	nt	95.9	nt	nt
CCOc1ccc(CN2CCN(Cc3ccsc3)C(CCO)C2)cc1CO (stereo not drawn)	0.93	-56.5	i	nt	112.7	176.1	-3.5
COc1ccccc1C1(CCN=Cc2ccc(N(C)C)cc2)CCOC(C)(C)C1 (stereo not drawn)	0.96	nt	i	nt	104.6	nt	nt
CCOC(=O)c1sc2cc([N+](=O)[O-])cc(SCC(=O)OC)c2c1N	1.12	-67.6	i	-2.5	107.8	121.1	-2.5
O=C(NCCCN1CCOCC1)C(=O)NCc1ccccc1Cl	nt	30.8	nt	nt	103.7	99.2	-5.7

Some of these compounds in order of their number in GALR2 agonist, low to high:
structure	HSV augment primary fold	GALR2 agonist	RGS16-Gao HTS	PKD1 kinase inh
COc1cccc(C(=O)/C=C/c2ccc(SC)cc2)c1	0.85	-3.8	94.9	-7.4
CCOC(=O)N1CCN(C(=O)Cc2ccsc2)CC1	0.94	-3.4	106.2	6.7
O=c1c2c3c(sc2nc2n1CCCC2)CCCCC3	0.8	-2.7	77.8	0.3
O=[N+]([O-])c1ccc(/C=N/n2cnc3ccccc32)s1	0.54	-1.3	110.3	-5.8

Retrieved by compound from above (two):
compound	HSV augment primary fold	Insulin prom inh	HSV augment	GALR2 agonist	RGS16-Gao HTS	Insulin prom inh cell count	PKD1 kinase inh
COCCOC(=O)c1c(C)n(C)c2ccc(OC(=O)c3ccco3)cc12	0.95	0.0	i	85.8*	106.9	90.8	-1.7
COC(=O)CC1Oc2ccccc2N(Cc2ccc(C)cc2)C1=O (stereo not drawn)	1.09	nt	i	-0.7	102.4	nt	7.6

Continued.
compound	HSV augment primary fold	Insulin prom inh	HSV augment	GALR2 agonist	RGS16-Gao HTS	Insulin prom inh cell count	PKD1 kinase inh
O=C(NCCCn1ccnc1)C(=O)NCC(c1cccnc1)N1CCN(c2ccccc2)CC1 (stereo not drawn)	0.74	-2.4	i	-0.5	98.9	113.4	4.8
O=C(CN(Cc1ccccc1)S(=O)(=O)c1ccc(S(=O)(=O)N2CCOCC2)cc1)Nc1ccccc1	1.03	nt	i	-0.6	105.7	nt	1.5
CCN(CC)C(=O)COc1cc(C)cc2oc(=O)cc(-c3ccccc3)c12	0.98	-19.4	i	0.7	127.8	105.9	6.8
Nc1nonc1-c1nc2ccccc2n1CC(=O)N/N=C/c1ccc(-c2ccccc2C(=O)O)o1	1.02	25.0	i	nt	101.6	152.0	-2.8
Cc1cc(C)cc(NC(=O)CSc2nc(N)c(NC(=O)c3cccs3)c(=O)[nH]2)c1	0.96	40.0	i	-0.2	87.2	122.8	-5.8
O=C(NCCc1ccccc1)NC1CCCCC1	1	80.0*	i	-3.2	104.2	146.2*	-1.0
Cc1ccc(F)cc1NC(=O)CSc1ncccn1	1.02	nt	i	nt	101.1	nt	0.4
Cc1ccc(-n2c(SCC(=O)NCC3CCCO3)nnc2-c2ccoc2C)cc1 (stereo not drawn)	0.92	nt	i	-1.9	109.1	nt	-3.0
